UCH37 DUB inh: inhibitors of human UCH37 deubiquitinase, primary screen, biochemical, Ub-AMC cleavage, fluorescence; purified proteasome/UCH37; inhibition, % (test concentration not listed); hit rate 0.33% among 330,000; AID 588478, 2011;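 active = mean of two replicates above 20%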;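 also: 0% = compound-free wells with enzyme and 100% = wells lacking proteasome; stock transfer was 100 nL into about 20 µL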
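Test system – human UCH37 enzyme supplied as purified proteasome complex · Incubation – 30 min preincubation with enzyme, 25 min cleavage at room temperature · Detection – AMC fluorescence from Ub-AMC cleavage, excitation 355 nm, emission 460 nm · Benchmarks – no-proteasome wells (full inhibition) and compound-free wells (no inhibition)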
HNF4A DNA FP: change in binding of human HNF4A to DNA, primary screen, biochemical, fluorescence polarization, FITC-DNA; Hepatocyte nuclear factor 4-alpha (Homo sapiens), P41235; 1 h; activity change, % at 10 µM; hit rate 0.3% among 360,000; in the data active = activity change above about 30%, passing the limit was not always enough;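 also: controls were the assay level and a saturating level of protein; the project sought stronger binding though the title names inhibitors; some compounds called inactive have numbers as strong as hits; positive values seem to mean higher polarization but the record does not say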
Target sequence (P41235 whole entry, looked up): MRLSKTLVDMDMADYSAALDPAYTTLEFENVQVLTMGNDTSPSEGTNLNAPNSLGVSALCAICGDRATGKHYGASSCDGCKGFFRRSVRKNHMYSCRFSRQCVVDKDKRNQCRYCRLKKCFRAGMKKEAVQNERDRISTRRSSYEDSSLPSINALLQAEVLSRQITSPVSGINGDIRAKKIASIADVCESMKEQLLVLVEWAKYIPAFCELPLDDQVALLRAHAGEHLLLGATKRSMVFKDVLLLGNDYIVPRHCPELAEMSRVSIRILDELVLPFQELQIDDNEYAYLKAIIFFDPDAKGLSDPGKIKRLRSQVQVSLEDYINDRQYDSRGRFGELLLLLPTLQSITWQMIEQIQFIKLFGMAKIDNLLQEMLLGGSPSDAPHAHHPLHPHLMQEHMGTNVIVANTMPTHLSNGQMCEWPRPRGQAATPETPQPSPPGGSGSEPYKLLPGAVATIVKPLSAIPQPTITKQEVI
ALR inh: inhibitors of human ALR sulfhydryl oxidase, primary screen, biochemical, H2O2 detection, HRP-luminol luminescence, single point | FAD-linked sulfhydryl oxidase ALR (Homo sapiens), P55789 | purified ALR, DTT oxidation | inhibition, % (concentration not given with the values) | hit rate 3.8% among 290,000 | AID 485317, 2010;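 active = mean and each replicate at 75% or more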;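 also: stock transfer was 7.5 nL into about 7.5 µL; 0% = neutral wells and 100% = wells with inactivated enzyme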
FGF22 binding: binders of human FGF22 protein, primary screen, FGF22 synaptogenesis inhibitor project, biophysical, thermal shift, single point | hit rate 1.5% among 340,000 | calls only at 9.99 µM | recombinant FGF22 thermal shift, SYPRO orange fluorescence; percent of sucrose octasulfate shift, DMSO zero;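 active = melting point raised past a set limit in the mean and every replicate; three in four hits are not shown here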
Target sequence (Q9HCT0 whole entry, looked up): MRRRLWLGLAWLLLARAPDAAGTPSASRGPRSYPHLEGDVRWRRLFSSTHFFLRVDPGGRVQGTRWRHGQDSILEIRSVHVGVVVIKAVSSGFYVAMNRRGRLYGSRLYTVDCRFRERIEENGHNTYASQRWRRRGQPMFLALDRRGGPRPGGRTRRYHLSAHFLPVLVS
Ecoli rRNA inh: reduced GFP signal of wild-type E. coli, primary screen, bacterial rRNA inhibitor project, GFP/RFP fluorescence, OD600, single point. E. coli WT GFP vs humanized-ribosome RFP mutants, 24 h; stronger effect = lower value; DMSO median 0, no signal -100. GFP signal change (wild-type ribosome), % (test concentration not listed). hit rate 1.6% among 350,000. AID 720706, 2013;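 active = significant combined selectivity score with lowered wild-type GFP, culture density cut under 30%, mutant RFP and density less affected; inactive = any of these conditions unmet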; also: one replicate is shown; some compounds called inactive have numbers as strong as hits
Ecoli growth: E. coli growth inhibition, primary screen, OD600. Escherichia coli growth, 23 h; stronger effect = lower value. OD600 absorbance (concentration not given with the values). hit rate 0.21% among 330,000. AID 1053175, 2014;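 active = OD600 absorbance below the run mean of sample wells minus 3.6 SD, in any replicate, cut at about 0.56 in these data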;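 also: stock transfer was 300 nL into about 60 µL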
Beta2AR agonist: beta2AR agonists driving receptor internalization, primary screen, cell-based, FAP fluorogen, flow cytometry. AID 504454, 2011. Beta-2 adrenergic receptor (Homo sapiens), P07550. hit rate 0.43% among 340,000. response, % (no concentration beside the values). Am2.2-beta2AR cells; reference of the scale not given here;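 active = response above a set limit, near 3 SD of response in nonfluorescent compounds, cut at about 42% in these data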;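 also: stock transfer was 100 nL into about 11 µL; a reference agonist was the positive control; negative values mostly stem from fluorescent compounds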
Target sequence (P07550 whole entry, looked up): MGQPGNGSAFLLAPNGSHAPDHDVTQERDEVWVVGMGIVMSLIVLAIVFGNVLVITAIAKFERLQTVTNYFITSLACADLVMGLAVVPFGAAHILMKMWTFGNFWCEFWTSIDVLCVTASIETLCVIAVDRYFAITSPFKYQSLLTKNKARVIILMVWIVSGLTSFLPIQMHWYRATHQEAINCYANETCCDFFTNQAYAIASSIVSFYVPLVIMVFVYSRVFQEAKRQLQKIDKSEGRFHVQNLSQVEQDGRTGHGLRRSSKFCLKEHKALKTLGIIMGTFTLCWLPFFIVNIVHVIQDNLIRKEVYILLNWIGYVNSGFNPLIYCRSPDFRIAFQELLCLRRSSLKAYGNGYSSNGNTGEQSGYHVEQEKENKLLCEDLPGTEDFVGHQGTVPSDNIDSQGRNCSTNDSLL
Ecoli rRNA inh OD600: also measured in Ecoli rRNA inh; calls as there; OD600 change, %; measured here: OD600 growth;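 optical density of the mix in the first replicate; 0 = DMSO median and -100 = no signal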
Ecoli rRNA inh RFP: second read-out of Ecoli rRNA inh, no call of its own (marks repeat the call); RFP signal change, %; measured here: RFP humanized mutant strains;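 first replicate; 0 = DMSO median and -100 = no signal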
* hit, by the source's call. A portion of the library; the hit share may differ from the screen's.

`CC(NCc1cc(Br)ccc1OCC(N)=O)C12CC3CC(CC(C3)C1)C2` (stereo unspecified) gave UCH37 DUB inh 2.1, HNF4A DNA FP -4.9, ALR inh 0.8, FGF22 binding inactive, Ecoli rRNA inh -7.6, Ecoli growth 0.67, Beta2AR agonist 6.4, Ecoli rRNA inh OD600 -10.0 and Ecoli rRNA inh RFP 1.2.
O=C(CCSc1ccccc1)Nc1ccc(S(=O)(=O)N2CCOCC2)cc1 was read as UCH37 DUB inh 2.9, HNF4A DNA FP 0.5, ALR inh -2.9, Ecoli growth 0.734 and Beta2AR agonist 2.0.
Screening Cc1ccc(-c2[nH][nH]c(=O)c(=O)c2N=Nc2ccccc2)cc1 returned UCH37 DUB inh 10.2, HNF4A DNA FP 1.5, ALR inh -3.5, FGF22 binding inactive, Ecoli rRNA inh 7.8, Ecoli growth 0.694, Beta2AR agonist 7.8, Ecoli rRNA inh OD600 11.4 and Ecoli rRNA inh RFP -0.2.
For NC(=O)C1CCN(CC(=O)c2c[nH]c3ccc(F)cc23)CC1 the results were UCH37 DUB inh 6.2, HNF4A DNA FP 8.4, ALR inh -12.2, Ecoli growth 0.629 and Beta2AR agonist -1.6.
`Cc1onc(-c2ccccc2Cl)c1C(=O)NC(C)c1ccccc1` (stereo unspecified) gave UCH37 DUB inh 1.5, HNF4A DNA FP -0.8, ALR inh -4.9, FGF22 binding inactive, Ecoli rRNA inh -12.9, Ecoli growth 0.704, Beta2AR agonist -5.3, Ecoli rRNA inh OD600 -8.7 and Ecoli rRNA inh RFP -1.3.
`COc1ccc(Cc2nc3ccc(C(=O)N4C[C@@H](C)O[C@@H](C)C4)cc3o2)cc1OC` gave UCH37 DUB inh 3.1, HNF4A DNA FP -0.6, ALR inh -25.5, FGF22 binding inactive, Ecoli rRNA inh 0.1, Ecoli growth 0.674, Beta2AR agonist -0.5, Ecoli rRNA inh OD600 3.7 and Ecoli rRNA inh RFP -1.2.
For Cc1ccccc1NC(=S)NCc1ccc2c(c1)cc(C)n2C the results were UCH37 DUB inh 0.7, HNF4A DNA FP -2.8, ALR inh -17.9, FGF22 binding inactive, Ecoli rRNA inh -4.8, Ecoli growth 0.716, Beta2AR agonist 52.2*, Ecoli rRNA inh OD600 16.9 and Ecoli rRNA inh RFP 32.0.
`CCOC(=O)N1CCC(NC(=O)Cn2c3c(c(-c4ccccc4Cl)cc2=O)CCC3)CC1` gave UCH37 DUB inh -16.9, HNF4A DNA FP 1.0, ALR inh -9.9, FGF22 binding inactive, Ecoli rRNA inh 4.7, Ecoli growth 0.782, Beta2AR agonist -10.3, Ecoli rRNA inh OD600 -31.3 and Ecoli rRNA inh RFP 20.1.
For CCOC(=O)c1cnc2ccc(OCC)cc2c1N1CCN(C)CC1 the results were UCH37 DUB inh 5.4, HNF4A DNA FP 2.9, Ecoli growth 0.722 and Beta2AR agonist -4.8.
Screening COC(=O)C(NC(=O)CSc1nc(N)cc(=O)[nH]1)c1ccccc1 (stereo unspecified) returned UCH37 DUB inh 1.1, HNF4A DNA FP 0.5, ALR inh -8.0, FGF22 binding inactive, Ecoli rRNA inh 12.9, Ecoli growth 0.663, Beta2AR agonist 9.1, Ecoli rRNA inh OD600 10.8 and Ecoli rRNA inh RFP -1.0.
Screening Cc1ccccc1C(=O)OCC(=O)NCC1COc2ccccc2O1 (stereo unspecified) returned HNF4A DNA FP 1.5, FGF22 binding inactive, Ecoli rRNA inh -21.9, Beta2AR agonist 4.1, Ecoli rRNA inh OD600 -32.4 and Ecoli rRNA inh RFP -4.6.
CCC(C)NS(=O)(=O)c1ccc(S(=O)(=O)N2CCCC3(CCCCC3)C2)cc1 (stereo unspecified) was read as UCH37 DUB inh 1.7, HNF4A DNA FP -2.6, ALR inh -2.2, Ecoli rRNA inh 9.0, Ecoli growth 0.702, Beta2AR agonist 11.4, Ecoli rRNA inh OD600 3.8 and Ecoli rRNA inh RFP 0.3.
`CCN1CCN(c2ccc(S(=O)(=O)N3CCCCC3)cc2NC(=O)COc2ccc(F)cc2Cl)CC1` gave UCH37 DUB inh 2.3, HNF4A DNA FP -2.4, ALR inh -2.8, FGF22 binding inactive, Ecoli rRNA inh -52.4, Ecoli growth 0.692, Beta2AR agonist 3.2, Ecoli rRNA inh OD600 -81.4 and Ecoli rRNA inh RFP -15.7.
N#Cc1ccc(-c2ccc(Cl)cc2)nc1Oc1ccc(F)cc1 was read as UCH37 DUB inh -69.8, HNF4A DNA FP 3.7, ALR inh -5.6, Ecoli growth 0.753 and Beta2AR agonist -3.7.
For CN1CCN(C(=O)c2ccc(Cl)c(S(=O)(=O)N3CCCCCC3)c2)CC1 the results were UCH37 DUB inh -0.5, HNF4A DNA FP 1.3, ALR inh 2.4, Ecoli growth 0.647 and Beta2AR agonist 9.9.
Screening COC(=O)[C@]12CCCCC=C1N(Cc1ccccc1)C(=O)[C@H](CC(=O)NCCc1ccccc1OC)C2 returned HNF4A DNA FP -4.3, FGF22 binding inactive, Ecoli rRNA inh -12.0, Ecoli rRNA inh OD600 -24.2 and Ecoli rRNA inh RFP 0.4.
Screening COc1ccc(/C=N/N2C(=O)C3C4C=CC(C4)C3C2=O)cc1[N+](=O)[O-] (stereo unspecified) returned HNF4A DNA FP 1.3, ALR inh 1.0, FGF22 binding inactive, Ecoli rRNA inh 12.4, Beta2AR agonist -1.2, Ecoli rRNA inh OD600 -1.7 and Ecoli rRNA inh RFP 0.5.
`CN(C(=O)CN1C(=O)NC2(CCc3ccccc32)C1=O)C1CCCCC1` (stereo unspecified) gave UCH37 DUB inh 3.3, HNF4A DNA FP -5.2, ALR inh -1.4, Ecoli rRNA inh -13.2*, Ecoli growth 0.693, Ecoli rRNA inh OD600 0.4* and Ecoli rRNA inh RFP 5.2*.
Cc1cc(C)c(C(=O)COC(=O)Cn2nc(-c3ccccc3)oc2=O)cc1C was read as UCH37 DUB inh 1.4, HNF4A DNA FP -2.5, ALR inh -1.8, FGF22 binding inactive, Ecoli rRNA inh 9.3, Ecoli growth 0.689, Beta2AR agonist 3.1, Ecoli rRNA inh OD600 3.4 and Ecoli rRNA inh RFP -0.1.
For O=C(O)c1ccccc1/C=N/Nc1nc(N2CCCCC2)nc(N2CCCCC2)n1 the results were ALR inh -4.1, FGF22 binding inactive, Ecoli rRNA inh 7.4, Ecoli rRNA inh OD600 15.6 and Ecoli rRNA inh RFP 0.5.
`Cc1noc(/C=C/N(C)C)c1S(=O)(=O)N1CCCC(C(=O)NCc2cccs2)C1` (stereo unspecified) gave UCH37 DUB inh 14.0, HNF4A DNA FP 1.1, FGF22 binding inactive, Ecoli rRNA inh 6.7, Ecoli growth 0.729, Beta2AR agonist 25.3, Ecoli rRNA inh OD600 6.6 and Ecoli rRNA inh RFP -4.9.
CC/C(=N\NC(=O)c1ccc2c(c1)OCO2)C12CC3CC(CC(C3)C1)C2 was read as HNF4A DNA FP 0.0, ALR inh 2.8 and Beta2AR agonist 1.2.
CC(C)Oc1ccc(C(=O)Nc2cccc(S(=O)(=O)N3CCCC3)c2)cc1 was read as UCH37 DUB inh 2.4, HNF4A DNA FP 0.5, ALR inh 0.1, FGF22 binding inactive, Ecoli rRNA inh -6.5, Ecoli growth 0.727, Beta2AR agonist 14.1, Ecoli rRNA inh OD600 -21.8 and Ecoli rRNA inh RFP -7.0.
COc1ccc(N(C)S(=O)(=O)c2cccc(C(=O)OCC(=O)Nc3sc4c(c3C#N)CCCCC4)c2)cc1 was read as UCH37 DUB inh 2.9, HNF4A DNA FP 0.4, ALR inh -2.9, FGF22 binding inactive, Ecoli rRNA inh 5.4, Ecoli growth 0.676, Beta2AR agonist 2.5, Ecoli rRNA inh OD600 4.5 and Ecoli rRNA inh RFP 2.6.
`CCCCCCn1c(-c2ccco2)nc2oc3cc(OC)ccc3c(=O)c2c1=O` gave UCH37 DUB inh -0.5, HNF4A DNA FP 2.1, ALR inh -2.5, Ecoli rRNA inh -22.6, Ecoli growth 0.714, Beta2AR agonist -15.0, Ecoli rRNA inh OD600 -34.5 and Ecoli rRNA inh RFP 2.6.
For CN(C)C=Nc1nonc1-c1ncn[nH]1 the results were UCH37 DUB inh 2.3, HNF4A DNA FP -3.0, ALR inh -8.7, Ecoli growth 0.786 and Beta2AR agonist -1.1.
`CCc1cc2ccc(C)cc2nc1SCC(=O)NC1CCCC1` gave UCH37 DUB inh -2.1, HNF4A DNA FP 0.4, FGF22 binding inactive, Ecoli rRNA inh 0.9, Ecoli growth 0.731, Beta2AR agonist 4.7, Ecoli rRNA inh OD600 2.4 and Ecoli rRNA inh RFP 2.1.
CNC(=O)CSc1nnc(-c2cccs2)o1 was read as UCH37 DUB inh -0.8, HNF4A DNA FP -1.8, Ecoli growth 0.692 and Beta2AR agonist 1.6.
For CNC(=O)CN1C(=O)CSc2nc(C)cc(C)c21 the results were UCH37 DUB inh 2.6, HNF4A DNA FP 1.6, ALR inh 25.4, FGF22 binding inactive, Ecoli rRNA inh 4.5, Ecoli growth 0.749, Beta2AR agonist -3.6, Ecoli rRNA inh OD600 3.8 and Ecoli rRNA inh RFP -5.6.
Screening Cn1c(=O)c2c(nc(Sc3ncnn3CC(=O)N3CCOCC3)n2C)n(C)c1=O returned UCH37 DUB inh 2.0, HNF4A DNA FP -1.1, ALR inh -1.1, FGF22 binding inactive, Ecoli rRNA inh 7.3, Ecoli growth 0.668, Beta2AR agonist 2.6, Ecoli rRNA inh OD600 1.9 and Ecoli rRNA inh RFP -6.0.
COc1ccccc1Cc1c(C(C)(C)C)nc2ccc(C)cn12 was read as HNF4A DNA FP 2.3, FGF22 binding inactive, Ecoli rRNA inh -15.6, Ecoli rRNA inh OD600 -12.3 and Ecoli rRNA inh RFP 3.0.
For C[C@@H]1C[C@H]2[C@@H]3C[C@H](F)C4=CC(=O)C=C[C@]4(C)[C@@]3(F)[C@@H](O)C[C@]2(C)[C@@]1(O)C(=O)CO the results were UCH37 DUB inh 0.6, HNF4A DNA FP -2.5, FGF22 binding inactive and Beta2AR agonist 7.4.
Screening Cc1ccc(S(=O)(=O)N2CCN(C(=O)COC(=O)CCOc3cc(C)ccc3C)CC2)c(C)c1 returned UCH37 DUB inh 3.0, HNF4A DNA FP 4.4, FGF22 binding inactive, Ecoli rRNA inh 10.4, Ecoli growth 0.656, Beta2AR agonist -4.6, Ecoli rRNA inh OD600 6.5 and Ecoli rRNA inh RFP 0.2.
Cc1ccc(S(=O)(=O)NC(C)(C)C)cc1C(=O)OC(C)C(=O)NC1CC1 (stereo unspecified) was read as UCH37 DUB inh 2.8, HNF4A DNA FP 2.9, ALR inh -12.4, FGF22 binding inactive, Ecoli rRNA inh 5.4, Ecoli growth 0.697, Beta2AR agonist 1.1, Ecoli rRNA inh OD600 5.0 and Ecoli rRNA inh RFP 0.3.
`Cc1ccc(C(=O)NCCCCNC(=O)c2ccc(C)o2)o1` gave UCH37 DUB inh -1.9, HNF4A DNA FP -1.4, ALR inh 19.8, Ecoli growth 0.68 and Beta2AR agonist 1.3.
